VHR inh abs – inhibitors of human VHR1 phosphatase (DUSP3); recombinant VHR phosphatase, pNPP absorbance; inhibition, % at 13.3 µM; 290,000 tested, 0.52% active; AID 1654; in the data active = inhibition above about 50%; also: some compounds called inactive have numbers as strong as hits
Target sequence (P51452 whole entry, looked up): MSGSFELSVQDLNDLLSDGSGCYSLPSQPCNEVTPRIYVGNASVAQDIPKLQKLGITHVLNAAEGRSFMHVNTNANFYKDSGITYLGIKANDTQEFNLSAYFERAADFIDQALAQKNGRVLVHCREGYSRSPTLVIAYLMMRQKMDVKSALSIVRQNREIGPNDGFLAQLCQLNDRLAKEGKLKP
CCHFV vOTU inh – blocks the CCHF virus ovarian tumor domain protease; CCHFV vOTU protease, Pep-AMC fluorescence; 370,000 tested, 0.55% active; inhibition, % at 11.5 µM; in the data active = inhibition above about 30%; also: 0% = vehicle wells with enzyme and 100% = no enzyme wells
PrPC TRFRET – inhibitors of human cell surface prion protein PrPC; P04156; TR-FRET read-out; inhibition, % at 13.8 µM; 370,000 tested, 0.43% active; AID 720596; in the data active = inhibition above about 24%; also: 0% = median of the test wells and 100% = reference compound wells
SSB-PriA inh – inhibitors of Klebsiella pneumoniae PriA binding to SSB C-terminal tail; AlphaScreen SSBct-PriA binding, biotinylated peptide; inhibition, % at 33 µM; 430,000 tested, 0.6% active; in the data active = inhibition mostly above about 37%, no sharp cut-off; inactive = mostly below about 20%;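 also: plate controls were negative control peptide for no effect and reference peptide for full effect; strong numbers were not always called active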
Rv3671c protease – Rv3671c (M. tuberculosis) protease inhibition | inhibition, % at 5.96 µM | 320,000 tested, 0.048% active | AID 2606; in the data active = inhibition above about 38%;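 also: extracellular domain of Rv3671c used as enzyme; 0% = enzyme with DMSO and 100% = no enzyme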
Target sequence (P9WHR9 whole entry, looked up, the tested form may be a part): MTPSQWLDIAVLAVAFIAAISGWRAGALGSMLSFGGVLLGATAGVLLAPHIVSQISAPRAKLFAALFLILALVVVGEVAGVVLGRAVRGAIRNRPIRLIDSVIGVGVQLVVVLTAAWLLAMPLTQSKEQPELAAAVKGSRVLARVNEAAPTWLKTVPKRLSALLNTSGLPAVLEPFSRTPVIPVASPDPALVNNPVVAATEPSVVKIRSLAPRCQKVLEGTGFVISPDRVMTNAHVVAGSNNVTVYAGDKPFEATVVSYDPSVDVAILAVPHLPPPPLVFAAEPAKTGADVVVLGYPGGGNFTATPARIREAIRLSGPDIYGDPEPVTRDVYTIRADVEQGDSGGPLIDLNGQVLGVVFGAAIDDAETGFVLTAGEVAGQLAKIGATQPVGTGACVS
MazEF act – activators of E. coli MazEF toxin-antitoxin RNase. P0AE70. FAM/BHQ RNA-DNA oligo cleavage fluorescence, 5 h. activation, % at 20 µM. 350,000 tested, 0.32% active; in the data active = activation above about 50%
Target sequence (P0AE70 whole entry, looked up): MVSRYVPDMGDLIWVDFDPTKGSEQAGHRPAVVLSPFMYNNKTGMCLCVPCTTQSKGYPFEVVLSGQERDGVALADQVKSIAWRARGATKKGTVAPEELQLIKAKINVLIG
BoNT-A LC inh2 – inhibitors of Botulinum neurotoxin A light chain protease | multiplex microsphere protease substrate cleavage, flow cytometry | inhibition, % at 10 µM | 360,000 tested, 0.17% active | AID 588499; in the data active = inhibition above about 30%; also: plate controls were buffer without enzyme for full effect and enzyme alone for no effect
Numbers without * were called inactive; . = not tested or not shown; & = joins results of further samples.

cpd | smiles | CCHFV vOTU inh | SSB-PriA inh | MazEF act | VHR inh abs
1 | O=C(Nc1ccccc1)N1CCOCC1 | 2.9 | -8.9 | 8.3 | 13.2
2 | O=C(O)c1cc(O)ccc1O | -33.5 | -10.2 | -7.3 | .
3 | CC12CCC(=O)C=C1CCC1C2C(=O)CC2(C)C1CCC2(O)C(=O)CO (centres undefined) | -0.8 | -1.1 | -6.9 | -4.9
4 | CN[C@@H]1CC[C@H](c2ccc(Cl)c(Cl)c2)c2ccccc21 | -1.8 | 10.5 | 16.0 | -3.8
5 | OC(Cn1cncn1)(Cn1cncn1)c1ccc(F)cc1F | -9.6 | 2.6 | -6.1 | .
6 | C[C@@H]1O[C@@H](O[C@H]2C[C@@H](O)[C@]3(CO)[C@H]4[C@H](O)C[C@]5(C)[C@@H](C6=CC(=O)OC6)CC[C@]5(O)[C@@H]4CC[C@]3(O)C2)[C@H](O)[C@H](O)[C@H]1O | . | -7.8 | -3.1 | 24.0
7 | Cn1c(SCc2c(Cl)cccc2Cl)nnc1-c1ccc2nonc2c1 | 2.0 | -9.9 | -1.6 | 24.9
8 | Oc1ccc2cccnc2c1 | 0.6 | -8.0&-0.1 | 6.6 | -4.9
9 | O=C(Nc1nccs1)c1cccnc1 | -1.0 | -7.2 | 8.6 | 25.2
10 | CCCCC(C)(O)C/C=C/[C@H]1[C@H](O)CC(=O)[C@@H]1CCCCCCC(=O)OC (some centres undefined) | . | . | . | 4.7

cpd | PrPC TRFRET | Rv3671c protease | BoNT-A LC inh2
1 | 2.6 | -7.2 | 0.0
2 | 7.3 | . | -1.6
3 | 6.3 | 0.1 | -5.1
4 | -3.1 | . | -0.5
5 | -2.4 | -7.9 | 0.6
6 | . | 1.5&5.2 | -1.3
7 | -40.6 | -2.7 | 1.8
8 | -3.6 | 4.3 | 0.2
9 | -2.1 | -2.2 | 2.2
10 | . | . | .

The listing continues.
cpd | smiles | CCHFV vOTU inh | SSB-PriA inh | MazEF act | VHR inh abs
11 | CN(C)CCC(c1ccc(Cl)cc1)c1ccccn1 (centres undefined) | 5.7&7.6 | 2.6 | 13.1&9.6 | 30.1&-14.6
12 | COC(=O)c1ccc(C)cc1 | -7.1 | -7.8 | 1.4 | .
13 | CN(C)c1ccc(O)c2c1CC1CC3[C@@H](N(C)C)C(=O)C(C(N)=O)=C(O)[C@]3(O)C(=O)C1=C2O (some centres undefined) | 6.7 | -1.3 | 11.0 | -6.8
14 | COc1ccc2c(c1OC)C(=O)OC2C1c2cc3c(cc2CCN1C)OCO3 (centres undefined) | 16.6 | -4.3 | 2.1 | 7.4
15 | O=c1ccn([C@@H]2O[C@H](CO)[C@@H](O)[C@H]2O)c(=O)[nH]1 | -1.4 | -1.7 | -1.2 | 0.9
16 | CCC(=O)OC1CCC2C3CCC4CC(=O)C=CC4(C)C3CCC12C (centres undefined) | 30.2* | -20.3 | -11.1 | .
17 | CC(C)NC[C@@H](O)COc1cccc2ccccc12 | 3.3 | -7.3 | 7.2 | .
18 | O=C1CC(=O)CC(c2ccccc2)C1 | 14.4 | -12.0&-13.4 | -0.8 | -6.2
19 | C[N+]1(C)[C@@H]2CC(OC(=O)[C@H](CO)c3ccccc3)C[C@H]1[C@@H]1O[C@@H]12 (some centres undefined) | 0.8&-2.8 | -8.2 | 7.4&1.8 | -18.4&12.0
20 | O=C(O)CC(O)(CC(=O)O)C(=O)O | -8.0 | -8.6 | 2.9 | .

cpd | PrPC TRFRET | Rv3671c protease | BoNT-A LC inh2
11 | -3.9&0.2 | -4.0&7.6&-1.9 | -0.5&-0.1
12 | 4.2 | 0.2 | 0.0
13 | 0.8 | 1.1 | -0.9
14 | 9.7 | 4.3 | -4.0
15 | 0.7 | -8.4 | -1.0
16 | 3.2 | . | 0.8
17 | 1.2 | 2.7 | 0.3
18 | -1.6 | 4.0 | 0.1
19 | 8.0&-2.5 | 2.6&8.1 | -0.6&-1.1
20 | -1.9 | -15.6 | 0.2

Another view of part of the listing above:
entry	SMILES	CCHFV vOTU inh	SSB-PriA inh	MazEF act	VHR inh abs	PrPC TRFRET	Rv3671c protease	BoNT-A LC inh2
9	O=C(Nc1nccs1)c1cccnc1	-1.0	-7.2	8.6	25.2	-2.1	-2.2	2.2
10	CCCCC(C)(O)C/C=C/[C@H]1[C@H](O)CC(=O)[C@@H]1CCCCCCC(=O)OC (some centres undefined)	.	.	.	4.7	.	.	.
11	CN(C)CCC(c1ccc(Cl)cc1)c1ccccn1 (centres undefined)	5.7&7.6	2.6	13.1&9.6	30.1&-14.6	-3.9&0.2	-4.0&7.6&-1.9	-0.5&-0.1
12	COC(=O)c1ccc(C)cc1	-7.1	-7.8	1.4	.	4.2	0.2	0.0
13	CN(C)c1ccc(O)c2c1CC1CC3[C@@H](N(C)C)C(=O)C(C(N)=O)=C(O)[C@]3(O)C(=O)C1=C2O (some centres undefined)	6.7	-1.3	11.0	-6.8	0.8	1.1	-0.9
14	COc1ccc2c(c1OC)C(=O)OC2C1c2cc3c(cc2CCN1C)OCO3 (centres undefined)	16.6	-4.3	2.1	7.4	9.7	4.3	-4.0
15	O=c1ccn([C@@H]2O[C@H](CO)[C@@H](O)[C@H]2O)c(=O)[nH]1	-1.4	-1.7	-1.2	0.9	0.7	-8.4	-1.0
16	CCC(=O)OC1CCC2C3CCC4CC(=O)C=CC4(C)C3CCC12C (centres undefined)	30.2*	-20.3	-11.1	.	3.2	.	0.8
17	CC(C)NC[C@@H](O)COc1cccc2ccccc12	3.3	-7.3	7.2	.	1.2	2.7	0.3
18	O=C1CC(=O)CC(c2ccccc2)C1	14.4	-12.0&-13.4	-0.8	-6.2	-1.6	4.0	0.1
19	C[N+]1(C)[C@@H]2CC(OC(=O)[C@H](CO)c3ccccc3)C[C@H]1[C@@H]1O[C@@H]12 (some centres undefined)	0.8&-2.8	-8.2	7.4&1.8	-18.4&12.0	8.0&-2.5	2.6&8.1	-0.6&-1.1
20	O=C(O)CC(O)(CC(=O)O)C(=O)O	-8.0	-8.6	2.9	.	-1.9	-15.6	0.2

Additional structures:
cpd | smiles | CCHFV vOTU inh | SSB-PriA inh | MazEF act | VHR inh abs
21 | CC(C)(O)c1ccccc1CC[C@@H](SCC1(CC(=O)O)CC1)c1cccc(/C=C/c2ccc3ccc(Cl)cc3n2)c1 | . | -5.6 | -7.2 | .
22 | NC(=O)c1ncn([C@@H]2O[C@H](CO)[C@@H](O)[C@H]2O)n1 | 5.8 | -5.3 | -3.8 | -3.0
23 | Clc1ccc(C(Cl)(Cl)Cl)c(Cl)c1 | -4.2 | 7.3 | -20.6 | .
24 | CC12CCC(=O)C=C1CCC1C2C(=O)CC2(C)C1CC[C@]2(O)C(=O)CO (some centres undefined) | -4.2 | -3.1 | 6.8 | -11.0
25 | Nc1ccc(S(=O)(=O)Nc2ccccn2)cc1 | 1.0 | -0.5 | 5.3 | 12.4
26 | CC12C=CC(=O)C=C1CCC1C2C(O)CC2(C)C1CCC2(O)C(=O)CO (centres undefined) | -3.1 | -11.3 | 5.0 | .
27 | CC(C)NC[C@H](O)COc1cccc2ccccc12 | 7.9 | -13.0 | 0.0 | .
28 | CCc1ccc(C(c2ccc(CC)cc2)C(Cl)Cl)cc1 | 4.1 | -15.8 | 0.8 | .
29 | CCc1cccc(CC)c1N(COC)C(=O)CCl | 1.7 | -3.6 | 7.3 | .
30 | C[C@]12CCC(=O)C=C1CC[C@@H]1[C@@H]2[C@@H](O)C[C@@]2(C)[C@H]1CC[C@]2(O)C(=O)CO | 0.7&-0.3 | 5.7 | 8.2&10.6 | -3.0

cpd | PrPC TRFRET | Rv3671c protease | BoNT-A LC inh2
21 | . | -57.9 | 0.7
22 | 5.8 | -3.5 | -0.4
23 | 3.2 | -1.2 | -0.1
24 | 7.3 | -3.4 | -2.0
25 | -0.8 | 1.1 | 0.0
26 | 4.9 | . | 0.1
27 | -5.1 | 0.8 | 0.5
28 | 6.3 | -1.6 | -0.4
29 | -5.4 | . | 0.1
30 | 7.4&4.6 | 9.1&1.7 | -0.3&-0.3

Record cards, from the list above:
Record of O=C(Nc1ccccc1)N1CCOCC1 → CCHFV vOTU inh: 2.9; SSB-PriA inh: -8.9; MazEF act: 8.3; VHR inh abs: 13.2; PrPC TRFRET: 2.6; Rv3671c protease: -7.2; BoNT-A LC inh2: 0.0
Record of Cn1c(SCc2c(Cl)cccc2Cl)nnc1-c1ccc2nonc2c1 → CCHFV vOTU inh: 2.0; SSB-PriA inh: -9.9; MazEF act: -1.6; VHR inh abs: 24.9; PrPC TRFRET: -40.6; Rv3671c protease: -2.7; BoNT-A LC inh2: 1.8

Other compounds follow:
cpd | smiles | CCHFV vOTU inh | SSB-PriA inh | MazEF act | VHR inh abs
31 | CC[C@H](C)C(=O)O[C@H]1C[C@@H](C)C=C2C=C[C@H](C)[C@H](CC[C@@H]3C[C@@H](O)CC(=O)O3)[C@H]21 | -5.0&17.5 | 11.8 | 6.8&4.7 | -3.0
32 | Nc1nnc(-c2cccc(Cl)c2Cl)c(N)n1 | -1.8 | -6.3 | 2.3 | 12.4&-10.7
33 | Cc1ccccc1C(=O)Nc1ccccc1 | 0.1 | -10.5 | 7.7 | 10.5
34 | CCCC1C(=O)N2C(N(C)C)=Nc3ccc(C)cc3N2C1=O (centres undefined) | 0.3 | -3.5 | -5.8 | .
35 | O=C(O)CN(CC(=O)O)CC(=O)O | 7.1 | 7.0 | 9.6 | .
36 | O=c1[nH]cnc2scc(-c3ccccc3)c12 | -4.4 | 1.0 | -1.2 | 33.9
37 | COc1ccc2nc(NC(=O)CCc3ccc(OC)c(OC)c3)sc2c1 | -2.3 | -7.5 | 5.4 | -9.8
38 | CC(=O)NC(CCC(=O)O)C(=O)O (centres undefined) | 2.8 | -7.9 | 8.0 | .
39 | CCN1CCN(c2cc3c(cc2F)c(=O)c(C(=O)O)cn3C2CC2)CC1 | -19.1 | 4.1 | -9.0 | 0.9
40 | Cc1nnc2n1-c1ccc(Cl)cc1C(c1ccccc1)=NC2 | . | . | . | 16.5
41 | CC(N=C(NC#N)Nc1ccncc1)C(C)(C)C (centres undefined) | 14.1&2.3 | -6.2 | -6.0&-0.1 | -6.8
42 | CC(C(=O)Nc1ccc(Cl)cc1)c1ncc(C(F)(F)F)cc1Cl (centres undefined) | -0.4 | -16.5 | -10.5 | -7.3
43 | O=C1C=CC(=O)C=C1 | -0.4 | -9.6 | 5.5 | .

cpd | PrPC TRFRET | Rv3671c protease | BoNT-A LC inh2
31 | 2.8&-11.1 | -0.1&-8.3 | -0.5&-0.1
32 | 1.7 | 2.4 | -0.1
33 | -2.4 | -1.0 | -0.1
34 | -11.1 | -1.8 | 1.2
35 | 2.9 | . | 0.0
36 | 0.3 | 12.8 | -0.3
37 | -2.6 | -0.2 | -0.9
38 | 4.3 | . | -1.0
39 | 0.9 | -7.0 | 0.9
40 | . | . | .
41 | 5.5&-5.3 | 7.2&-6.0 | 0.1&-0.4
42 | 7.9 | -8.6 | 0.7
43 | -4.4 | -14.9 | -0.4

These rows are one share of the data. The share of hits here may be higher or lower than overall.
